Assay outcomes as filed in PubChem BioAssay.
HIV Env fusion – HIV envelope-mediated fusion inhibition; HeLa-JRFL Env/CEM21 cell fusion, luciferase; hit rate 1.1% among 360,000; inhibition, % at 12.3 µM;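 active = mean replicate inhibition score of at least 50 and every replicate individually at or above 50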;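 note: 0% = plate neutral controls and 100% = maraviroc near 300 nM; one replicate is shown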
UUG fidelity – alters start codon recognition fidelity in yeast | S. cerevisiae UUG-firefly luciferase reporter, luminescence/redox ratio | activity score, % at 18.7 µM | hit rate 0.13% among 350,000;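 active = replicate mean at a twofold rise or more, about +100% in these data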;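 note: firefly luciferase made from a UUG start codon reports start codon fidelity; reporter light over untreated wells divided by growth signal over untreated wells; some hits fall short of that in this replicate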
The depositor's hits bear a star; & = joins results of further samples; [ ] = remark or other dose.

Sample of the layout:
SMILES	HIV Env fusion	UUG fidelity
C[C@@H]1CCCCO[C@@H](CN(C)S(=O)(=O)c2ccccc2)[C@H](C)CN([C@@H](C)CO)C(=O)c2cc(NC(=O)Nc3cccc4ccccc34)ccc2O1	-55[16.7 µM]	-28
C[C@H](CO)N1C[C@H](C)[C@H](CN(C)C(=O)NC2CCCCC2)Oc2c(NC(=O)c3cnccn3)cccc2C1=O	4[16.7 µM]	11
COc1ccccc1-c1cnc2c(c1)C(=O)N([C@@H](C)CO)C[C@@H](C)[C@@H](CN(C)C(=O)CC1CC1)O2	5[16.7 µM]	16
C/C=C/c1ccc2c(c1)O[C@@H](CN(C)CC1CCOCC1)[C@H](C)CN([C@H](C)CO)S2(=O)=O	13[16.7 µM]	-8
C[C@@H]1CN([C@@H](C)CO)C(=O)CCCn2cc(nn2)CO[C@@H]1CN(C)Cc1ccc(O)cc1	-19[16.7 µM]	7

All compounds of this part, from the first entry:
SMILES	HIV Env fusion	UUG fidelity
C[C@@H]1CCCCO[C@@H](CN(C)S(=O)(=O)c2ccccc2)[C@H](C)CN([C@@H](C)CO)C(=O)c2cc(NC(=O)Nc3cccc4ccccc34)ccc2O1	-55[16.7 µM]	-28
C[C@H](CO)N1C[C@H](C)[C@H](CN(C)C(=O)NC2CCCCC2)Oc2c(NC(=O)c3cnccn3)cccc2C1=O	4[16.7 µM]	11
COc1ccccc1-c1cnc2c(c1)C(=O)N([C@@H](C)CO)C[C@@H](C)[C@@H](CN(C)C(=O)CC1CC1)O2	5[16.7 µM]	16
C/C=C/c1ccc2c(c1)O[C@@H](CN(C)CC1CCOCC1)[C@H](C)CN([C@H](C)CO)S2(=O)=O	13[16.7 µM]	-8
C[C@@H]1CN([C@@H](C)CO)C(=O)CCCn2cc(nn2)CO[C@@H]1CN(C)Cc1ccc(O)cc1	-19[16.7 µM]	7
C[C@@H]1CN([C@H](C)CO)C(=O)c2cc(NC(=O)Nc3ccc4c(c3)OCO4)ccc2O[C@@H](C)CCCCO[C@H]1CN(C)Cc1ccc2c(c1)OCO2	1[16.7 µM]	17
O=C(C[C@H]1CC[C@@H](NC(=O)c2ccccc2)[C@H](CO)O1)NCc1ccc(Oc2ccccc2)cc1	66*[16.7 µM]	-28
CO[C@H]1CN(C)C(=O)c2ccc(NS(=O)(=O)c3cccc(F)c3)cc2OC[C@@H](C)NC[C@@H]1C	-1[16.7 µM]	-5
C[C@H]1CN([C@@H](C)CO)C(=O)Cc2cc(N(C)C)ccc2O[C@H]1CN(C)C(=O)NC1CCCCC1	-2[16.7 µM]	-7
N#C[C@@H]1[C@H](c2ccccc2)[C@H](CO)N1C(=O)CN1CCOCC1	-9[16.7 µM]	2
C[C@H](CO)N1C[C@H](C)[C@@H](CN(C)C(=O)Nc2ccc(C(F)(F)F)cc2)OCCCC[C@H](C)Oc2ccc(NC(=O)NC3CCCCC3)cc2C1=O	46[16.7 µM]	-13
CNC[C@H]1Oc2ccc(NC(=O)NC(C)C)cc2C(=O)N([C@@H](C)CO)C[C@H]1C	24[16.7 µM]	-9
Cc1ccc(S(=O)(=O)N[C@H]2CC[C@H](CCn3cc(-c4cccc(F)c4)nn3)O[C@H]2CO)cc1	-10[16.7 µM]	-5
C[C@H]1CN([C@@H](C)CO)S(=O)(=O)c2ccc(/C=C/c3ccccc3)cc2O[C@H]1CN(C)CC1CC1	15[16.7 µM]	4
Cc1ccccc1-c1cnc2c(c1)C(=O)N([C@@H](C)CO)C[C@H](C)[C@H](CN(C)C(=O)CN(C)C)O2	3[16.7 µM]	-4
CC(C)NC(=O)N(C)C[C@@H]1Oc2ncc(-c3ccc(C(=O)N(C)C)cc3)cc2C(=O)N([C@@H](C)CO)C[C@@H]1C	-39[16.7 µM]	-2
C[C@@H]1CCCCO[C@@H](CN(C)Cc2ccc(C(F)(F)F)cc2)[C@@H](C)CN([C@H](C)CO)C(=O)c2cc(NC(=O)Nc3ccc(C(F)(F)F)cc3)ccc2O1	-16[16.7 µM]	-18
C[C@@H]1CCCCO[C@@H](CN(C)C(=O)c2ccncc2)[C@H](C)CN([C@H](C)CO)C(=O)c2cc(NS(C)(=O)=O)ccc2O1	-3[16.7 µM]	-7
CN1C(=O)c2cc(NC(=O)C3CCCCC3)ccc2OC[C@@H]2O[C@@H](CC(=O)NC3CCCC3)CC[C@H]21	-7[16.7 µM]	11
COc1ccc(CNC(=O)C[C@H]2C[C@@H]3c4cc(NC(=O)CN(C)C)ccc4O[C@@H]3[C@@H](CO)O2)cc1	-80[16.7 µM]	-2
Cc1noc(C)c1S(=O)(=O)N(C)C[C@@H]1OCCCC[C@H](C)Oc2ccc(NS(=O)(=O)c3ccc(F)cc3)cc2C(=O)N([C@H](C)CO)C[C@@H]1C	-24[16.7 µM]	8
CCCC#Cc1cnc2c(c1)C(=O)N([C@H](C)CO)C[C@@H](C)[C@H](CN(C)C(=O)CN1CCOCC1)O2	-12[16.7 µM]	-4
C[C@@H]1CN([C@@H](C)CO)C(=O)Cc2cc(NC(=O)Nc3ccc(C(F)(F)F)cc3)ccc2O[C@@H]1CN(C)Cc1ccc2c(c1)OCO2	7[16.7 µM]	28
C[C@H](CO)N1C[C@H](C)[C@@H](CN(C)C(=O)C2CCCCC2)Oc2cc(C#CC(C)(C)O)ccc2S1(=O)=O	1[16.7 µM]	5
C[C@H](CO)N1C[C@H](C)[C@@H](CN(C)C)Oc2ncc(-c3cccc(F)c3)cc2C1=O	-12[16.7 µM]	-11
C[C@@H]1CN([C@H](C)CO)C(=O)c2cc(C#CCN(C)C)cnc2O[C@H]1CN(C)C(=O)NC1CCCCC1	17[16.7 µM]	7
C[C@H]1CCCCO[C@H](CN(C)C(=O)c2ccccc2)[C@@H](C)CN([C@@H](C)CO)C(=O)c2cc(N(C)C)ccc2O1	7[16.7 µM]	-11
C[C@@H]1CN([C@@H](C)CO)S(=O)(=O)c2ccc(C#C[C@@H](C)O)cc2O[C@@H]1CN(C)C(=O)Nc1ccccc1	-203[16.7 µM]	27
C[C@H]1CN([C@@H](C)CO)C(=O)c2cc(NC(=O)NC3CCCCC3)ccc2O[C@@H]1CN(C)C(=O)Nc1ccc(F)cc1	6[16.7 µM]	-7
CC(=O)N(C)C[C@@H]1Oc2ncc(C#CC3(O)CCCC3)cc2C(=O)N([C@H](C)CO)C[C@@H]1C	-3[16.7 µM]	1
COCC#Cc1ccc2c(c1)O[C@@H](CN(C)CC1CC1)[C@@H](C)CN([C@H](C)CO)S2(=O)=O	-6[16.7 µM]	3
C[C@H](CO)N1C[C@H](C)[C@@H](CN(C)C(=O)Nc2ccc(C(F)(F)F)cc2)Oc2c(NC(=O)Nc3ccc(F)cc3)cccc2C1=O	5[16.7 µM]	-12
COc1ccccc1CN1C[C@H](C)[C@H](OC)CN(C)C(=O)c2ccc(NC(C)=O)cc2OC[C@H]1C	-17[16.7 µM]	-10
Cc1noc(C)c1NC(=O)Nc1cccc2c1O[C@H](CN(C)C(=O)Nc1ccc3c(c1)OCO3)[C@H](C)CN([C@H](C)CO)C2=O	18[16.7 µM]	-9
Cc1ccc(S(=O)(=O)N(C)C[C@@H]2Oc3c(NC(=O)Nc4ccc(F)cc4)cccc3C(=O)N([C@@H](C)CO)C[C@@H]2C)cc1	20[16.7 µM]	-14
C[C@@H]1CN([C@@H](C)CO)C(=O)c2cccc(NC(=O)c3ccncc3)c2O[C@@H]1CN(C)Cc1ccc(Cl)c(Cl)c1	-22[16.7 µM]	-1
COc1ccccc1-c1cnc2c(c1)C(=O)N([C@H](C)CO)C[C@H](C)[C@H](CN(C)Cc1ccc(C(=O)O)cc1)O2	-10[16.7 µM]	16
C[C@@H]1CCCCO[C@@H](CN(C)Cc2ccc3c(c2)OCO3)[C@@H](C)CN([C@H](C)CO)C(=O)c2cc(NC(=O)Nc3ccc4c(c3)OCO4)ccc2O1	-28[16.7 µM]	-17
Cc1noc(C)c1S(=O)(=O)N(C)C[C@H]1OCCCC[C@H](C)Oc2ccc(NC(=O)Nc3ccc4c(c3)OCO4)cc2C(=O)N([C@@H](C)CO)C[C@@H]1C	60*[16.7 µM]	-11
CC(C)NC(=O)N(C)C[C@H]1Oc2ccc(NC(=O)Nc3ccc(C(F)(F)F)cc3)cc2CC(=O)N([C@H](C)CO)C[C@@H]1C	-35[16.7 µM]	1
CCNC(=O)C[C@H]1CC[C@@H]2[C@H](COc3ccc(NC(=O)Nc4cccc(C)c4)cc3C(=O)N2C)O1	4[16.7 µM]	5
COc1cccc(-c2ccc3c(c2)O[C@@H](CN(C)C(C)=O)[C@@H](C)CN([C@@H](C)CO)S3(=O)=O)c1	-7[16.7 µM]	5
COCC(=O)Nc1ccc2c(c1)OC[C@@H](C)N(CCc1ccccc1)C[C@H](C)[C@@H](OC)CN(C)C2=O	-24[16.7 µM]	3
C[C@H](CO)N1C[C@H](C)[C@H](CN(C)C(=O)Nc2ccc(F)cc2)Oc2c(NC(=O)Nc3ccc(F)cc3)cccc2C1=O	1[16.7 µM]	9
O=S(=O)(NCC[C@@H]1CC[C@H](NS(=O)(=O)c2ccccc2Cl)[C@H](CO)O1)c1ccc(F)cc1	7[16.7 µM]	11
O=C(NCC[C@@H]1CC[C@H](NS(=O)(=O)c2cccc(F)c2)[C@@H](CO)O1)c1cnccn1	2[16.7 µM]	-11
Cc1ccc(S(=O)(=O)N[C@@H]2CC[C@@H](CC(=O)NCc3ccc(Cl)c(Cl)c3)O[C@H]2CO)cc1	12[16.7 µM]	-2
C[C@H](CO)N1C[C@H](C)[C@@H](CN(C)C(=O)C2CC2)Oc2cc(C#Cc3cccnc3)ccc2S1(=O)=O	17[16.7 µM]	3
C[C@@H]1CN([C@@H](C)CO)C(=O)c2cc(C#Cc3ccccc3F)cnc2O[C@@H]1CN(C)C	-2[16.7 µM]	4
C[C@@H]1CCCCO[C@@H](CN(C)S(=O)(=O)c2ccccc2)[C@H](C)CN([C@H](C)CO)C(=O)c2cc(NC(=O)Nc3ccc(C(F)(F)F)cc3)ccc2O1	34[16.7 µM]	-7
C[C@H]1CN([C@@H](C)CO)C(=O)c2cc(C#Cc3ccc(F)cc3)cnc2O[C@H]1CN(C)C(=O)Nc1ccc(F)cc1	-12[16.7 µM]	-7
O=C(C[C@H]1C=C[C@H](NC(=O)Nc2cc(F)ccc2F)[C@H](CO)O1)NCc1ccccn1	15[16.7 µM]	-12
O=C1O[C@H](c2ccccc2)[C@H](c2ccccc2)N2[C@H]1[C@@H](C(=O)N1CCN(c3ncccn3)CC1)[C@]1(C(=O)Nc3ccccc31)[C@H]2c1ccc(O)cc1	23[16.7 µM]	-8
C[C@@H]1CN([C@@H](C)CO)C(=O)c2cc(NC(=O)Cn3cnnn3)ccc2O[C@@H]1CN(C)Cc1ccccc1	6[16.7 µM]	-4
C[C@@H]1CN([C@@H](C)CO)C(=O)CCCn2nncc2CO[C@@H]1CN(C)Cc1ccccc1C(F)(F)F	-4[16.7 µM]	5
C[C@H]1CN([C@@H](C)CO)C(=O)c2cccc(NS(C)(=O)=O)c2O[C@H]1CN(C)C(=O)Nc1ccc2c(c1)OCO2	-14[16.7 µM]	28
C[C@@H]1CN([C@@H](C)CO)C(=O)c2cccc(NC(=O)c3ccc(-c4nccs4)cc3)c2O[C@H]1CN(C)S(C)(=O)=O	-28[16.7 µM]	0
COc1ccc(NC(=O)Nc2ccc3c(c2)[C@@H]2C[C@@H](CC(=O)NCC4CC4)O[C@H](CO)[C@@H]2O3)cc1	-6[16.7 µM]	-6
O=C1c2ccccc2[C@@]2(Cc3ccccc3N(Cc3ccccc3)C2=O)[C@H](c2ccc(CO)cc2)N1C1CCCCC1	-3[16.7 µM]	52
COc1ccc(CN(C)C[C@@H]2OCCCC[C@H](C)Oc3ccc(NS(=O)(=O)c4ccc(OC)cc4)cc3C(=O)N([C@@H](C)CO)C[C@@H]2C)cc1	-2[16.7 µM]	7

More results follow.
SMILES	HIV Env fusion	UUG fidelity
COc1ccccc1S(=O)(=O)N[C@@H]1C=C[C@H](CC(=O)N2CCN(C)CC2)O[C@H]1CO	-6[16.7 µM]	-11
C[C@H]1CN([C@@H](C)CO)C(=O)c2cc(NC(=O)CCCCCC(=O)Nc3ccccc3N)ccc2O[C@@H]1CN(C)Cc1ccncc1	-1[16.7 µM]	-5
C[C@H]1CN([C@@H](C)CO)S(=O)(=O)c2ccc(C#Cc3ccncc3)cc2O[C@H]1CN(C)C(=O)C1CCC1	7[16.7 µM]	6
C[C@@H]1CN([C@H](C)CO)C(=O)c2cc(N(C)C)ccc2O[C@@H]1CN(C)S(=O)(=O)c1cn(C)cn1	4[16.7 µM]	-6
Cc1ccc(S(=O)(=O)N(C)C[C@H]2Oc3ccc(NC(=O)CCC(F)(F)F)cc3C(=O)N([C@H](C)CO)C[C@H]2C)cc1	2[16.7 µM]	2
COc1cccc(S(=O)(=O)N(C)C[C@@H]2Oc3ncc(C#CCN(C)C)cc3C(=O)N([C@H](C)CO)C[C@@H]2C)c1	-1&11[16.7 µM]	31&-1
COc1ccc(S(=O)(=O)N(C)C[C@@H]2Oc3ncc(-c4cccc(C(F)(F)F)c4)cc3C(=O)N([C@H](C)CO)C[C@@H]2C)cc1	-1[16.7 µM]	-17
O=C(C[C@H]1CC[C@H](NC(=O)C2CCC2)[C@H](CO)O1)NCc1ccccc1Cl	-17[16.7 µM]	-15
COc1cccc(S(=O)(=O)N(C)C[C@H]2Oc3cc(C#CCN(C)C)ccc3S(=O)(=O)N([C@@H](C)CO)C[C@@H]2C)c1	10[16.7 µM]	26
CN(C)C(=O)C[C@@H]1CC[C@H]2[C@H](COc3ccc(NC(=O)c4ccc(F)c(F)c4)cc3C(=O)N2C)O1	2[16.7 µM]	16

HIV Env fusion: what is marked active above
SMILES	HIV Env fusion	UUG fidelity
O=C(C[C@H]1CC[C@@H](NC(=O)c2ccccc2)[C@H](CO)O1)NCc1ccc(Oc2ccccc2)cc1	66*[16.7 µM]	-28
Cc1noc(C)c1S(=O)(=O)N(C)C[C@H]1OCCCC[C@H](C)Oc2ccc(NC(=O)Nc3ccc4c(c3)OCO4)cc2C(=O)N([C@@H](C)CO)C[C@@H]1C	60*[16.7 µM]	-11

An excerpt; rates above refer to the full screens.
